# CBX7 AlphaScr = blocks human CBX7 binding to H3K27me3 peptide; hit rate 1.1% among 66,000; normalised signal (fraction of DMSO) (no concentration beside the values); AlphaScreen His6-CBX7 / biotin-H3K27me3 peptide binding; hits give low values; O95931; in the data active = normalised signal below about 0.5;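 also: 100 nL library stock added to about 20 µL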
# Target sequence (O95931 whole entry, looked up): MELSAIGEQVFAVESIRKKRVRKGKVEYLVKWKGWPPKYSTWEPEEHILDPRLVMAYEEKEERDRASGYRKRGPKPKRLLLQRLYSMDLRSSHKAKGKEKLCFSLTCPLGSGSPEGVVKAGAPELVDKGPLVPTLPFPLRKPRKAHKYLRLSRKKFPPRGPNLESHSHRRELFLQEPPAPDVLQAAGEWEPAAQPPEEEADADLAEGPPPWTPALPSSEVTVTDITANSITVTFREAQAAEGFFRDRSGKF
# CBX7 AlphaScr z-score = second read-out of CBX7 AlphaScr, no call of its own (marks repeat the call); z-score; measured here: z-score of CBX7 signal; some inactives read as strong as hits; reference of the scale not given here;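 same signal on another scale; lower means less binding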
# * = called active by the depositor; & = joins results of further samples.
no.	compound	CBX7 AlphaScr	CBX7 AlphaScr z-score
1	Cc1ccc(-c2nn(CCC(=O)Nc3cccc(C(F)(F)F)c3)c(=O)c3ccccc23)cc1	1.1	1.7
2	Cc1ccc(NC(=O)c2c(-c3ccccc3)noc2C)c(Cl)c1	1.1	2.6
3	COc1cc(OC)cc(-c2cc3nc(C)c(CCC(=O)Nc4cc(F)ccc4F)c(C)n3n2)c1	0.95	-0.95
4	CCOC(=O)c1cnn(-c2ccccc2)c1NC(=O)CSc1ccccn1	1	0.15
5	O=C(C1CC1)N1CCc2cc(S(=O)(=O)N(CCc3ccccc3)Cc3ccccc3)ccc21	1.1	2.7
6	Cc1sc2nc[nH]c(=O)c2c1S(=O)(=O)N1CCN(C)CC1	1.1	0.34
7	CCC(=O)N1c2ccc(S(=O)(=O)NCCCN3CCN(c4ccccc4F)CC3)cc2CC1C (stereo not drawn)	0.99	-0.21
8	COc1ccc(NC(=O)CSc2nnc(-c3cccs3)n2CCc2ccccc2)cc1	0.98	-0.22
9	CCCCCCNC(=O)c1c[nH]c2ccc(S(=O)(=O)N3CCC4(CC3)OCCO4)cc2c1=O	1.1	1.7
10	Cc1ccc(Nc2c(-c3ccccc3)nc3ccc(C)cn23)cc1	1.2	2.5
11	O=C(CCc1nc(-c2ccccc2F)no1)N1CCN(c2ccccn2)CC1	1.1	2.3
12	CC(=O)N1CCc2cc(S(=O)(=O)NCCC(=O)NCCc3ccc(Cl)cc3)ccc21	0.93	-1.3
13	Cc1ccc(-c2nnc(Nc3ccc(OCC(N)=O)cc3)c3ccccc23)cc1S(N)(=O)=O	1	0.017
14	CC(=O)Nc1nonc1NC(=O)CSc1nc2ccccc2o1	0.92	-1.3
15	CC(C)(C)c1ccc(-c2nc3cc(NC(=O)Cc4ccccc4)ccc3o2)cc1	1	0.74
16	COc1ccc(CNC(=O)CCc2c(C)nc3cc(-c4ccccc4OC)nn3c2C)cc1	1	1.2
17	CCCCNS(=O)(=O)c1ccc2nc(-c3ccccc3)[nH]c2c1	0.71	-0.38
18	COc1ccc(-c2cc(C(=O)Nc3cc(C)n(Cc4ccc(Cl)cc4)n3)no2)cc1OC	1	0.11
19	CCc1ccc(CNC(=O)CCNC(=O)Cn2ccc3ccccc3c2=O)cc1	1	1.8
20	CCOC(=O)c1c(NC(=O)COc2ccccc2)sc2c1CCCC2	0.97	-0.067
21	CCn1cc(-c2nc(-c3nonc3N)no2)c(C)n1	1.1	1.7
22	Cc1ccc2nc(NC(=O)CSc3nnc(CNC(=O)c4cccs4)o3)sc2c1	1.1	2
23	C=CCN1C(=O)C(O)(CC(=O)c2ccncc2)c2cc(Br)ccc21 (stereo not drawn)	0.82	-0.23
24	Cc1cccc(C2NC(=O)c3ccccc3N2)n1 (stereo not drawn)	0.98	-0.51
25	COc1ccc(-c2nnn(Cc3ccccc3F)n2)cc1	1.1	4.4
26	CCC1CCCCN1S(=O)(=O)c1ccc(C(=O)Nc2nnc(-c3cccs3)o2)cc1 (stereo not drawn)	0.91	-2.1
27	COc1ccc(S(=O)(=O)N2CCC(C(=O)NCCc3ccccc3)CC2)cc1OC	1	0.15
28	Cc1ccc(S(=O)(=O)c2cn(Cc3ccccc3F)c3ccc(F)cc3c2=O)cc1	0.97	-1.2
29	O=C(COc1ccccc1Cl)Nc1nccs1	1	1.3
30	COc1cccc(-c2nnc(-c3cc4cc(Cl)ccc4oc3=O)o2)c1	0.96	-0.7
31	FC(F)(F)c1cc(-c2ccccc2)nc2c(-c3cccc(Br)c3)cnn12	0.72	-4.8
32	CCC1CCCCN1CCCNC(=O)C1CCC(=O)N1C(C)C (stereo not drawn)	1.1	1.6
33	CCc1ccc(NC(=O)c2nccnc2C(=O)O)cc1	0.66	-4.4
34	Cc1ccccc1N1C(=O)C2C3C=CC(C3=C3CCCC3)C2C1=O (stereo not drawn)	1	0.44
35	COc1cccc(CN2CCN(Cc3cccc(F)c3)CC2)c1OC	0.98	-0.29
36	COc1ccc(C(=O)N2CCN(c3ccc4nnc(-c5ccccc5)n4n3)CC2)cc1OC	1	0.07
37	COc1ccc2[nH]c3c(c2c1)CCNC3CC(=O)O (stereo not drawn)	1	0.0056
38	CCOC(=O)c1nnn(-c2nonc2N)c1CSc1nc2ccc(OCC)cc2s1	0.7	-1.2
39	Cc1ccccc1CN1C(=O)c2ccccc2S(=O)c2ccc(C(=O)NCCCOC(C)C)cc21 (stereo not drawn)	1	0.23
40	O=C1C2C(c3ccccc3)C=CC(c3ccccc3)C2C(=O)N1Cc1ccc(F)cc1 (stereo not drawn)	1.1	1
41	CCN(CC)c1nc(C)nc2sc(C(=O)Nc3cccc(OC)c3)c(C)c12	0.97	-0.68
42	CC(C)CC1Nc2ccc(C(=O)NCCCN(C)C3CCCCC3)cc2NC1=O (stereo not drawn)	1.1	0.064
43	Cc1oc(-c2ccc(Cl)cc2)nc1CN1CCC(C(=O)NCCCN2CCCC(C)C2)CC1 (stereo not drawn)	1.1	3
44	COc1cccc(N2CCN(c3c(-c4ccccc4)c4cc(Cl)ccc4[nH]c3=O)CC2)c1	1	-0.15
45	Cc1ccc(OCCn2c(C3CC(=O)N(c4ccc(Br)cc4)C3)nc3ccccc32)cc1 (stereo not drawn)	1	0.067
46	O=C(c1cccc(Cl)c1)N1CCN(c2ccc3nncn3n2)CC1	0.93	-1.2
47	COc1ccccc1-c1c(C)nn2c(N3CCC(Cc4ccccc4)CC3)cc(C)nc12	1.5	2.8
48	Cc1cc(C)cc(C(=O)Nc2c3c(nn2-c2cccc(Cl)c2)CS(=O)(=O)C3)c1	0.92	-0.52
49	O=C(CCn1c(=O)[nH]c2ccccc2c1=O)N1CCN(c2ncccn2)CC1	1.1	0.37
50	CN(c1ccccc1)C(C(=O)NC1CCCCC1)c1ccccc1 (stereo not drawn)	0.99	-0.37

# Later entries.
no.	compound	CBX7 AlphaScr	CBX7 AlphaScr z-score
51	O=C(NCCc1ccccc1)C1CCN(C(=O)c2sccc2-n2cccc2)CC1	1	1
52	Cc1nn(Cc2c(Cl)cccc2Cl)c(C)c1NC(=O)c1cc(C(C)C)on1	0.88	-1.3
53	CCOc1ccc(NS(=O)(=O)c2ccc3c(c2)n(C)c(=O)c(=O)n3C)cc1	1	0.21
54	CCc1cccc(NC(=O)CCc2nc3cccnc3n2Cc2ccc(OC)cc2)c1	1.1	2.1
55	COc1ccc(-c2nn(C)c3sc(C(=O)N4CCC(Cc5ccccc5)CC4)cc23)cc1OC	0.81	-5.2
56	O=C(CSc1nccn1-c1cccc(Cl)c1)Nc1ccc2c(c1)OCCO2	0.81	-3.4
57	CCOc1ccc(N(CC(=O)NCc2ccccn2)S(=O)(=O)c2ccc(Cl)cc2)cc1	0.79	-0.82
58	CCOc1ccc(NC(=O)CNC(=O)Cn2ccc3ccccc3c2=O)cc1	1	0.66
59	CN(C)C(=O)N1CCC(C(=O)NCCc2ccc(Cl)cc2)CC1	0.97	-0.51
60	CCc1ccc(OCc2nc(-c3ccccn3)no2)cc1	0.98	-0.028
61	O=C(C1CCN(S(=O)(=O)c2cccnc2)CC1)N1CCN(c2ccc(F)cc2)CC1	1	0.59
62	Cc1ccc2oc(-c3ccc(NC(=O)COc4ccc(C)c(C)c4)cc3)nc2c1	1.1	0.62
63	Cc1ccc2nc(NC(=O)CSc3ncn[nH]3)sc2c1	0.88&0.99	-1.3&-0.27
64	CC1(C)CC(=O)c2sc(NC(=O)CCOc3ccccc3)nc2C1	1	1.5
65	CCCNC(=O)CCc1c(C)nc2cc(-c3ccccc3OC)nn2c1C	1.1	1.6
66	Cc1ccc(-c2ccc(=O)n(CC(=O)NC3CCCC3)n2)cc1	1	0.21
67	CCOc1ccc(NC(=O)Cn2cc(S(=O)(=O)c3ccc(C)cc3)c(=O)c3cc(F)ccc32)cc1	0.84	-2.2
68	Cc1ccccc1N1C(=O)c2ccccc2C1Nc1ccc(Br)cc1 (stereo not drawn)	0.95	-1.6
69	CCOCCn1cnc2sc(C(=O)Nc3ccc(F)cc3Cl)c(C)c2c1=O	1	0.23
70	COc1ccc(CNC(=O)C2(NS(=O)(=O)c3cccc4cccnc34)CCCCC2)cc1	0.98	-0.93
71	COc1ccc(CCNC(=O)C2CC(=O)N(C3CCCC3)C2)cc1OC (stereo not drawn)	0.97	-1
72	CNS(=O)(=O)c1cc(-c2nnc(Nc3ccc(OC)c(C(N)=O)c3)c3ccccc23)ccc1C	0.95	-0.12
73	COc1ccc(CN(CCC2(Cc3ccccc3)CCOC(C)(C)C2)C(C)=O)cc1 (stereo not drawn)	0.81	-1.5
74	Clc1ccccc1Cc1noc(-c2ccccc2Br)n1	1.3	3.6
75	COc1ccccc1N1CCN(c2ncc(C(=O)N3CCCCC3)c3ccccc23)CC1	0.88	-0.74
76	COc1cccc(N2C(=O)C3C4C=CC(C4=C4CCCC4)C3C2=O)c1 (stereo not drawn)	0.89	-0.45
77	CCOc1ccc(NC(=O)CSc2nc(NCc3ccc(Cl)cc3)c3ccccc3n2)cc1	1	2.5
78	CCCC1CCC(c2nc(-c3ccc(Cl)cc3)no2)CC1 (stereo not drawn)	1.3	11
79	COc1ccc(C)cc1Nc1cc(C)c2ccccc2n1	1.4&1.2	9.6&4.8
80	CN(CCCNC(=O)c1cc(-c2cccnc2)nc2ccccc12)Cc1ccccc1	1	0.55
81	CC1CCCN(C(C(=O)NC2CCCC2)c2ccccc2)C1 (stereo not drawn)	0.91	-2.2
82	COc1ccc2c(c1)c(C(C)=O)c(C)n2CCc1ccc(OC)c(OC)c1	0.97	-0.59
83	Cc1nc2c(C(=O)NC3CCCC3)c[nH]n2c(=O)c1Cc1cccc(Cl)c1	0.91	-0.75
84	O=c1c2c(nc3cc(-c4ccccc4)[nH]n13)CCC2	0.9	-1.2
85	Cc1cccc(NC(=O)CN(C)S(=O)(=O)c2ccc3c(c2)n(C)c(=O)c(=O)n3C)n1	1.2	1.6
86	CCC(=O)N1c2ccc(S(=O)(=O)Nc3cccc(Cl)c3)cc2CC1C (stereo not drawn)	1	1
87	Cc1ccc(-c2nc(Nc3ccc(C)c(Cl)c3)c3ccccc3n2)cc1	1.2	4.1
88	COc1ccc(NC(=O)C2CCCN2S(=O)(=O)c2ccc3c(c2)CCC(=O)N3)cc1Cl (stereo not drawn)	1.1	1.2
89	Cc1nc2c(C(=O)NCCCN3CCOCC3)cnn2c(C)c1Cc1ccc(F)cc1	0.81	-2
90	CC(C)(C)c1ccc(C(=O)Nc2ncc(Cc3ccc(F)cc3)s2)cc1	0.79	-2.3
91	O=C(NCc1ccc2c(c1)OCO2)c1ccc2c(c1)N(Cc1cccc(Cl)c1)C(=O)CS2	1	-0.018
92	COC(=O)c1ccc(Cc2nc3cc(C)c(C)cc3[nH]c2=O)cc1	1.1	1.9
93	COc1ccc(-c2nc3nc[nH]n3c2Nc2ccc(C)cc2)cc1	0.98	-0.64
94	CCOc1ccc(-c2nc(SCC(=O)Nc3nccs3)c(-c3ccccc3)[nH]2)cc1	0.94	-1
95	CCN(CC)CCCNC(=O)c1sc2ncn(CC(=O)N3CCCCC3C)c(=O)c2c1C (stereo not drawn)	1	0.27
96	CCOC(CNC(=O)c1sc2ncn(Cc3ccccc3Cl)c(=O)c2c1C)OCC	1.1	0.62
97	O=C(CNC(=O)Cn1ccc2ccccc2c1=O)NCCCN1CCOCC1	1.2	1.8
98	COc1ccc2c(c1)c(=O)c(S(=O)(=O)c1ccccc1)cn2CC(=O)Nc1ccc(Cl)cc1	0.9	-1.4
99	Cc1cc(C)c(NC(=O)c2cc3c(C)nn(-c4ccccc4)c3s2)c(C)n1	1	0.84
100	CCC(=O)N1CCc2cc(S(=O)(=O)N3CCN(c4cccc(C(F)(F)F)c4)CC3)ccc21	1	0.72

# From no. 76 as far as 77, copied from above:
no.	compound	CBX7 AlphaScr	CBX7 AlphaScr z-score
76	COc1cccc(N2C(=O)C3C4C=CC(C4=C4CCCC4)C3C2=O)c1 (stereo not drawn)	0.89	-0.45
77	CCOc1ccc(NC(=O)CSc2nc(NCc3ccc(Cl)cc3)c3ccccc3n2)cc1	1	2.5

# Six records drawn at random from the list so far:
no.	compound	CBX7 AlphaScr	CBX7 AlphaScr z-score
88	COc1ccc(NC(=O)C2CCCN2S(=O)(=O)c2ccc3c(c2)CCC(=O)N3)cc1Cl (stereo not drawn)	1.1	1.2
83	Cc1nc2c(C(=O)NC3CCCC3)c[nH]n2c(=O)c1Cc1cccc(Cl)c1	0.91	-0.75
92	COC(=O)c1ccc(Cc2nc3cc(C)c(C)cc3[nH]c2=O)cc1	1.1	1.9
97	O=C(CNC(=O)Cn1ccc2ccccc2c1=O)NCCCN1CCOCC1	1.2	1.8
80	CN(CCCNC(=O)c1cc(-c2cccnc2)nc2ccccc12)Cc1ccccc1	1	0.55
84	O=c1c2c(nc3cc(-c4ccccc4)[nH]n13)CCC2	0.9	-1.2

# Next part
no.	compound	CBX7 AlphaScr	CBX7 AlphaScr z-score
101	CCOC(=O)c1c(C)n(CCOc2ccc(-c3ccccc3)cc2)c2ccc(O)cc12	0.79	-4.9
102	CCOC(=O)N1CCC(Nc2c(NCc3ccccn3)c(=O)c2=O)CC1	0.82	-2.2
103	COc1ccccc1N1CCN(c2ncc(C(=O)Nc3ccc(F)cc3F)c3ccccc23)CC1	1.1	1.3
104	CCN(C(=O)c1cc2c(s1)-c1ccccc1OC2)c1cc(C)ccc1C	1.3	7.4
105	COc1cc2[nH]c(=O)n(CCCC(=O)N3CCN(c4ccccn4)CC3)c(=O)c2cc1OC	0.99	-0.23
106	c1csc(-c2nc3ccccn3c2Nc2ccc3c(c2)OCCO3)c1	0.77	-1.8
107	O=C(O)CCC(=O)N1CCc2cc(S(=O)(=O)N(CCc3ccccc3)Cc3ccccc3)ccc21	0.96	-0.92
108	C=CCN1C(=O)c2ccccc2Sc2ccc(C(=O)N3CCCC3)cc21	0.99	-0.31
109	CCN(CC)S(=O)(=O)c1ccc2c(c1)N(CC(=O)Nc1nccs1)C(=O)CO2	1	0.75
110	CCOc1ccc(NC(=O)N(CCN2CCOCC2)Cc2ccc3c(c2)CCCN3CC)cc1	0.78	-9
111	Cc1nc2c(c(C)nn2-c2ccccc2)c(C)c1CCC(=O)NCc1cccnc1	1.2	1.8

# Only part of the results is shown. The share of hits here may be higher or lower than overall.
